Vaccinia mCherry = inhibitors of vaccinia virus infection (mCherry reporter signal); Vaccinia virus mCherry reporter infection, fluorescence; about a quarter of the inactives have no number; Potency, µM (doses to about 36.5 µM), inactives show at the highest dose activity change, negative = inhibition, most hits filed as inhibitors; hit rate 0.63% among 310,000; active = well fitted inhibition curve with a large enough effect; inconclusive = small, poorly fitted or top-dose-only effect; inactive = no such curve, though single readings can be large or run the other way; tested in A549 cells; further: nearly all actives have a fitted effect of over 35% in size; inactives centre near -10
Vaccinia Venus = vaccinia inhibition (Venus reporter) | Vaccinia virus Venus reporter expression, fluorescence | Potency, µM (titrated, usually from 36.5 µM), for inactives: top-dose activity change, negative = inhibition, actives largely listed as inhibitors | hit rate 0.46% among 330,000 | AID 720580; active means well fitted inhibition curve with a large enough effect; inconclusive means small, poorly fitted or top-dose-only effect; inactive means no such curve, though single readings can be large or run the other way; tested in A549 cells; further: nearly all actives have a fitted effect of over 30% in size; inactives centre near -10
An asterisk follows results filed as active; i = inactive; u = inconclusive; x = not tested or not shown; & = joins results of further samples; [ ] = remark or other dose. On the % scale 0 is the no-effect control and ±100 the full control effect; potency means the concentration at half of the fitted maximal effect.

SMILES | Vaccinia Venus | Vaccinia mCherry
C[N+]1(CC#CC(O)(c2ccccc2)c2ccccc2)CCCC1 | -15% | -14%
CCN(CC)C1=CC(=[N+]2CCCC2)CC(C)(C)C1 | -14% | -27%
CC(C)c1nnc(NC(=O)CCC(=O)N2CCN(c3ccc(Cl)cc3)CC2)s1 | -17% | i
O=S(=O)(Nc1ccccc1F)c1ccc2nsnc2c1 | -6% | -14%
Cc1ccc(-n2c(C)cc(C(=S)N3CCOCC3)c2C)cc1C | -18% | -14%
COC(=O)[C@]12CCCCC=C1N(Cc1ccc3c(c1)OCO3)C(=O)[C@H](CC(=O)NCCC(C)C)C2 | -2% | -9%
COc1cc(-c2cc(C(=O)NCCc3ccc(S(N)(=O)=O)cc3)c3ccccc3n2)cc(OC)c1OC | -9% | i
COc1cc(C(=O)NC2CCCc3ccccc32)cc(OC)c1OC (centres undefined) | 3% | 20%
CN1CCC(=NNC(=O)CN(c2cccc(Cl)c2)S(C)(=O)=O)CC1 | u | u
CCCc1nc2c(=O)n(C)c(=O)nc-2n(C)n1 | 1µM* | u
CCN(C(=O)CSc1nnc(-c2ccccc2C)n1C)c1c(N)n(Cc2ccccc2)c(=O)[nH]c1=O | -3% | -6%
CCOc1ccc(/C=N\NC(=O)c2c(C)nc3cc(C)ccn23)cc1 | -17% | -22%
CCC(CC)C(=O)c1c[nH]c(C(=O)OC)c1 | -11% | -22%
Cc1ccc2c(C)c(C(=O)NCC3CCOCC3)oc2c1C | u | -17%
CCC(C)CN1C(=O)CN(S(C)(=O)=O)CC1(C)C(=O)Nc1ccc2c(c1)OCCO2 (centres undefined) | -14% | -11%
O=C(Cn1c(=O)c2c(ncn2Cc2ccccc2)n(Cc2ccccc2)c1=O)N1CCCC1 | -10% | x
N#C/C(=C\Nc1ccc(F)c(Cl)c1)S(=O)(=O)c1ccccn1 | -22% | -24%
Cc1cn(C2CC(O)C(CO)O2)c(=O)n(CCCc2ccccc2)c1=O (centres undefined) | -10% | -14%
COc1cc(C(=O)NCCNC(=O)c2ccc(C)nc2)cc(OC)c1OC | -18% | -3%
O=C(NCC(c1cccnc1)N1CCN(c2ccc(F)cc2)CC1)C1CCCCC1 (centres undefined) | -5% | x
Cc1ccccc1-n1cc(CNC(=O)C2CCC(=O)N(C3CC3)C2)cn1 (centres undefined) | -8% | -10%
COc1ccc(NC(=O)c2cc(C3CCCCN3C(=O)CCCc3ccccc3)on2)c(C)c1 (centres undefined) | -25% | u
COCCNC(=O)C(=O)NCC1OCCN1S(=O)(=O)c1cc(F)ccc1F (centres undefined) | -1% | i
O=C(CCNC(=O)c1ccco1)Nc1ccc(OC(F)F)c(Cl)c1 | 4% | -3%
Cc1cc(C(C)(C)C)cc(C)c1C(=O)O | -9% | i
CCC(=O)Nc1cc(-c2nn(C)c(=O)c3ccccc23)ccc1N1CCOCC1 | -2% | i
COc1cc(CN2CCC3(CCC(CNC(=O)c4ccco4)O3)CC2)cc(OC)c1 (centres undefined) | -14% | -14%
Cc1cccc2nc(CSc3ccc(Cl)cc3)cn12 | -3% | -14%
CCOC(=O)C1(C)C=C(Nc2cccc(OC)c2)C(=O)N1c1ccccc1 (centres undefined) | 8% | i
C[C@@H]1CC=C[C@@H]2[C@H]1C(=O)N(Cc1ccccc1)[C@H]2c1ccccc1Br | -25% | i
Cc1ccoc1C(=O)N1CCN(C(=O)c2occc2C)CC1 | 3% | 0%
COc1ccc(C2=NN(C(=O)CSc3nnc(C)c(=O)n3N)C(c3ccco3)C2)cc1 (centres undefined) | -14% | -3%
Cc1cc(C)cc(C(=O)NCC(=O)OCC(=O)NC2CCCc3ccccc32)c1 (centres undefined) | -6% | i
CCC12CN3CC(CC)(CN(C1)C3c1ccc([N+](=O)[O-])o1)C2=O (centres undefined) | -3% | -9%
COc1ccc(C(=O)Nc2sc3c(c2C(=O)O)CC(C)(C)OC3)cc1 | -25% | -12%
Cc1ccc(SCc2ccc(C(=O)Nc3cccc([N+](=O)[O-])c3)cc2)cc1 | -15% | -21%
Cc1ccc2c(C)c(C(=O)NCc3ccc(S(N)(=O)=O)cc3)oc2c1C | -16% | 5%
COc1cccc(-n2c(SCC(=O)NCc3ccco3)nnc2-c2c[nH]c3ccccc23)c1 | 4% | -8%
O=C(O)CSc1ccc2ccccc2n1 | 13% | x
O=C(COC(=O)C1COc2ccccc2O1)Nc1ccc2c(c1)CCC2 (centres undefined) | -20% | x
CCC(C)Nc1nc(OC)nc(N(C)C#N)n1 (centres undefined) | u | x
COc1cccc2cc(-c3nc(Cl)c4c5c(sc4n3)CC(C)CC5)c(=O)oc12 (centres undefined) | 2% | 1%
Cc1ccc(NS(=O)(=O)c2cc(-c3cc(C)no3)ccc2C)c(Cl)c1 | -21% | -22%
CC(=O)c1cc(-c2ccccc2)n(CC(=O)Nc2ccc(C)cc2C)c1C | -11% | -16%
C=CCN=c1scc(-c2ccc3c(c2)NC(=O)CO3)n1/N=C(\C)c1ccccn1 | u | u
COc1ccc(NC2=NCC(C)S2)cc1 (centres undefined) | -13% | u
COc1cccc(C(=O)Nc2cccnc2)c1OC | -8% | i
COC(=O)[C@@H]1C2CCC(C(=O)Nc3ccccc3)(CC2)[C@@H]1C(=O)OC | -10% | x
O=C(CCCNS(=O)(=O)c1cccc2nsnc12)NCc1ccc(F)cc1 | u | x
O=C(Cc1cccc(NC(=O)C2CCN(C(=O)C3CCCCC3)CC2)c1)Nc1cccc(C(=O)N2CCOCC2)c1 | -13% | -30%

The list continues.
SMILES | Vaccinia Venus | Vaccinia mCherry
NC(=O)c1ccc(NC(=O)CCC(=O)c2cccs2)cc1 | 0% | -5%
CCCc1cc(=O)n2[nH]c(NCc3ccc(CC)cc3)nc2n1 | -7% | -16%
Cc1cccc(C)c1OCC(=O)OCC(=O)c1ccc2c(c1)NC(=O)CO2 | -5% | -10%
CC(CN1CCCCC1)OC(=O)C(C)(c1ccccc1)c1ccccc1 (centres undefined) | -16% | -28%
CC(=O)c1ccc(N2CCN(C(=O)Nc3ccc(F)cc3F)CC2)cc1 | -8% | -2%
O=C(O)CSc1nc2ccc(C(=O)c3ccccc3)cc2[nH]1 | -11% | -7%
COc1ccc(Br)cc1CN(C)CC(=O)NCCc1ccccc1 | -4% | -13%
COc1cccc(NC(=O)CN(C)C(=O)Cc2ccc3c(c2)OCCO3)c1 | -18% | -14%
C=CCn1c(CNS(=O)(=O)c2ccc(F)cc2)n[nH]c1=S | -17% | -14%
COc1ccc(CCC(C)N2CCOCC2)cc1 (centres undefined) | -14% | i
COc1ccc2[nH]c(=O)c(CN(C(=O)C3CCCO3)c3ccc(C)c(C)c3)cc2c1 (centres undefined) | 8% | -10%
Cc1ccc(CN2CCN(c3ncccn3)CC2)o1 | -14% | 0%
CCn1nnnc1SCC(=O)N1CCN(Cc2ccc3c(c2)OCCO3)CC1 | -3% | -10%
CCOC(=O)c1c(NC(=O)Cn2nc(C(F)(F)F)cc2C)sc2c1CCC2 | -9% | i
NS(=O)(=O)c1ccc(CCNC(=O)C2CCCN2S(=O)(=O)c2cccc3nsnc23)cc1 (centres undefined) | u | -19%
CN(CC(=O)Nc1ccc(F)cc1)C(=O)Cn1cnc2ccc([N+](=O)[O-])cc2c1=O | -3% | i
Cc1nc(SCC(=O)NC2CCCC2)[nH]c(=O)c1Cc1ccccc1 | -2% | u
Nc1ncnc2c1ncn2[C@@H]1O[C@H](CNC(=O)[C@@H]2CCC(=O)N2)[C@@H](O)[C@H]1O | -1% | i
COc1ccc(OC)c(NS(=O)(=O)c2ccc(N3CCCC3=O)cc2)c1 | u | x
O=C1C=C(N2CCCCC2)C2(CCCCC2)O1 | -2% | i
Cc1cc(N/N=C/c2ccc(F)cc2)nc(NCc2ccccc2)n1 | -18% | u
CC(=O)c1ccc(Nc2nc(C(N)Cc3ccc(C(F)(F)F)cc3)cs2)cc1 (centres undefined) | u | -23%
CC(CCc1ccccc1)NC(=O)COC(=O)C1CCC(C(C)(C)C)CC1 (centres undefined) | 2% | i
CC(CN1CC(=O)NC(=O)C1)N1CC(=O)NC(=O)C1 (centres undefined) | 2%&-27% | -9%
COc1ccc(CCNC(=O)CCCN2C(=O)c3ccccc3C2=O)cc1OC | -17% | -11%
CC(=O)Nc1ccc(NC(=O)CSc2nnc(CNc3ccc(F)cc3)n2CC2CCCO2)cc1 (centres undefined) | -3% | -6%
CC(=O)c1ccc(NC(=O)c2cnc(N3CCCC3)nc2C)cc1 | -6% | 9%
COc1cccc(NC(=O)CN(C)C(=O)CCCNC(=O)c2ccc(Cl)cc2)c1 | -20% | -6%
Nc1ccccc1N1CCN(C(=O)c2ccccc2)CC1 | -4% | -12%
CC(C)CN(C(=O)CN(C)C(=O)Cc1c(F)cccc1Cl)c1c(N)n(CC(C)C)c(=O)[nH]c1=O | -4% | i
CCN1C(=O)C(=O)N(CC(=O)N2CCN(c3ccccc3)CC2)C1=O | -10% | -27%
Cc1cccc(NC(=O)CCCSc2nc3ccccc3[nH]2)c1 | 5% | i
O=C(Nc1ccccc1F)c1csc(COCCO)n1 | -2% | i
CCOC(=O)C(C(=O)OCC)c1cc(Br)c2noc3c2c1C(=O)c1ccccc1-3 | 118%[activator] | 3%[1.46 µM]
COc1ccc([C@H]2CC(=O)C=C(/C=C/c3ccccc3)C2)cc1OC | u | -27%
O=C(CN1CCN(c2ccc(Cl)cc2)CC1)c1ccccc1 | -23% | -17%
CCOc1ccccc1CN1CCC(O)CC1 | -6% | -13%
COc1ccc(CCNC(=O)CCCn2c(=O)c3ccccc3n(Cc3ccc(F)cc3Cl)c2=O)cc1OC | -7% | -12%
O=C1COc2ccc(C(=O)COC(=O)c3ccc(Cl)cc3[N+](=O)[O-])cc2N1 | -4% | -15%
CCOC(=O)c1c(C)[nH]c(C(=O)OC(C)C(=O)NCc2ccccc2)c1C (centres undefined) | -18% | i
C(=N\NC(=Nc1ccccc1)c1ccccn1)/c1ccccn1 | -12% | -21%
N/C(Cc1ccc(Cl)cc1)=N\OC(=O)c1cccc2ccccc12 | -13% | -16%
CCOC(=O)C1CCN(S(=O)(=O)c2cc(C(=O)OC)n(C)c2)CC1 | -15% | i
Cc1ccc(CNC(=O)C(=O)NCC(c2cccnc2)N2CCN(c3ccc(F)cc3)CC2)cc1 (centres undefined) | u | u
Cc1cc(=O)n2nc(N3CCCC(C(=O)NCc4ccc5c(c4)OCO5)C3)sc2n1 (centres undefined) | -10% | x
NC(=O)c1c(NC(=O)c2cnccn2)sc2c1CCCC2 | -14% | -14%
NS(=O)(=O)c1ccc(CCNC(=O)CN2CCN(Cc3cccc4ccccc34)CC2)cc1 | -2% | -12%
CN(C)c1ccc(C(=O)c2ccc(N(C)C)c(N)c2)cc1N | u | x
CCOC(=O)CCC(NC(=O)c1ccc(CNc2nc3cc(C(F)(F)F)ccc3nc2C(=O)OCC)cc1)C(=O)OCC (centres undefined) | -5% | -14%
CC1=NN(c2cccc(C(=O)O)c2)C(=O)/C1=C\C=C/c1ccccc1 | -2% | -2%

A portion of the results above, for reference:
SMILES | Vaccinia Venus | Vaccinia mCherry
CC(=O)Nc1ccc(NC(=O)CSc2nnc(CNc3ccc(F)cc3)n2CC2CCCO2)cc1 (centres undefined) | -3% | -6%
CC(=O)c1ccc(NC(=O)c2cnc(N3CCCC3)nc2C)cc1 | -6% | 9%
COc1cccc(NC(=O)CN(C)C(=O)CCCNC(=O)c2ccc(Cl)cc2)c1 | -20% | -6%
Nc1ccccc1N1CCN(C(=O)c2ccccc2)CC1 | -4% | -12%

Back to the main list, starting two compounds before the break.
SMILES | Vaccinia Venus | Vaccinia mCherry
CCOC(=O)CCC(NC(=O)c1ccc(CNc2nc3cc(C(F)(F)F)ccc3nc2C(=O)OCC)cc1)C(=O)OCC (centres undefined) | -5% | -14%
CC1=NN(c2cccc(C(=O)O)c2)C(=O)/C1=C\C=C/c1ccccc1 | -2% | -2%
CC(=O)c1cccc(NC(=O)CCCN2C(=O)COc3ccc(C)cc32)c1 | -6% | -9%
COc1cc(-c2c(OC)cccc2OC)cc2c1OCCN(C(=O)CCC(=O)c1ccc(F)cc1)C2 | 17% | -2%
CCOc1ccccc1NC(=O)CSc1nnc2[nH]c(=O)cc(-c3ccccc3)n12 | -14% | -17%
NS(=O)(=O)c1ccc(NC(=S)N2CCN(c3ccccc3Cl)CC2)cc1 | -14% | -1%
CCOC(=O)c1ccc(NC(=O)CSc2nc(=O)n(CCN3CCOCC3)c3c2CCC3)cc1 | -29% | -10%
CCOC(=O)N1CCN(c2c(N3CCN(c4ccccn4)CC3)c(=O)c2=O)CC1 | -8% | i
c1ccc(SCCOCCn2cncn2)cc1 | -9% | -18%
CC1CCCN(S(=O)(=O)c2ccc(Br)s2)C1 (centres undefined) | -7% | -12%
CCOc1ccc(-n2c(SCc3nc(-c4ccccc4C)no3)nnc2-c2ccccc2)cc1 | -11% | -2%
O=C(COC(=O)/C=C/c1ccc(F)cc1)Nc1cc(C(F)(F)F)ccc1N1CCOCC1 | -3% | i
CC(=O)c1ccc(NC(=O)NCCc2c[nH]c3ccccc23)cc1 | -13% | 0%
